# From PubChem BioAssay
# StopGo RLuc = FMDV 2A StopGo reporter, Renilla signal; Potency, µM (top dose mostly 57.5 µM), for the others: at the top dose signal change, negative = less light; HEK cells with a luciferase reporter of 2A StopGo recoding; AID 1745857; 0.32% of 120,000 active; active means well fitted falling curve with a large enough effect; inconclusive means small, poorly fitted or top-dose-only effect; inactive means no such curve, though single readings can be large or run the other way; further: nearly all actives have a fitted effect of over 55% in size; overnight with compound
# StopGo FLuc = lowers the firefly signal of an FMDV 2A StopGo reporter | HEK cells with a luciferase reporter of 2A StopGo recoding | Potency, µM (highest dose often 57.5 µM), inactives show at the top dose signal change, negative = less light | 0.23% of 120,000 active; active = well fitted falling curve with a large enough effect; inconclusive = small, poorly fitted or top-dose-only effect; inactive = no such curve, though single readings can be large or run the other way; further: nearly all actives have a fitted effect of over 60% in size; overnight with compound
# * marks the source's active call; other numbers are inactive results; ? = inconclusive; & = joins results of further samples; [ ] = remark or other dose. On the % scale 0 is the no-effect control and ±100 the full control effect; potency means the concentration at half of the fitted maximal effect.
SMILES,StopGo RLuc,StopGo FLuc
CCC(=O)N1CCc2cc(S(=O)(=O)N(C)c3cccc(C)c3)ccc21,6%,-18%
O=C(CCCn1c(=O)[nH]c2ccc(Br)cc2c1=O)N1CCN(c2cccc(Cl)c2)CC1,-7%,-1%
CC(=O)Oc1ccc2c(=O)c(Oc3cc(C)cc(C)c3)c(C(F)(F)F)oc2c1,?,-24%
CN(C)c1ccc(C(=O)N2CCN(C/C=C/c3ccccc3)CC2)cc1,?,-24%
CC1CCN(S(=O)(=O)c2ccc3c(c2)CCN3C(=O)Nc2ccc(Br)cc2)CC1,9%,64%[activator]
Cc1cnc(C(=O)NCC(O)c2ccccc2C(F)(F)F)cn1 (stereo not given),-4%,24%
CN(C(=O)CSc1nc2ccsc2c(=O)n1CCc1cccs1)c1ccccc1,0%,0%
C=CCNC(=S)Nc1cc(Cl)ccc1C,11%,1%
NC(=O)NC(=O)COC(=O)c1cc(Cl)ccc1Cl,-5%,-4%
O=C(NCC1(N2CCCCC2)CCCCC1)c1cccc(NC(=O)c2cccs2)c1,59%[activator],21%
O=C(NCc1ccc(S(=O)(=O)N2CCOCC2)cc1)c1ccc(OC(F)(F)F)cc1,-8%,18%
COC(=O)CNC(=O)c1cc(-c2ccccn2)nc2ccccc12,-2%,3%
CCOc1ccccc1NS(=O)(=O)c1cc(C(C)C)ccc1C,127%[activator],-3%
CCOC(=O)c1cccc(NS(=O)(=O)c2ccc(-c3cnc(C4CC4)o3)cc2)c1,192%[activator],-16%
O=C(CCc1ccccc1)N(Cc1cccnc1)c1nc2ccc(F)cc2s1,30%[activator],-14%
CCc1nc(SCC(=O)Nc2ccc(NC(C)=O)cc2)n[nH]1,-14%,-13%
CCNC(=O)CN1c2ccc(Br)cc2-c2ccccc2S1(=O)=O,41%[activator],65%[activator]
Cc1ccc(CNC(=O)C2CCN(S(=O)(=O)c3cccc4nonc34)CC2)cc1,-3%,-18%
COCCN1CCN(Cc2ccc(C(=O)NC(C)C)cc2)C(=O)C1=O,0%,-3%
COc1ccc2oc(=O)cc(CN3CCN(C(=O)c4c(F)cccc4F)CC3)c2c1,-12%,-8%
COc1ccc(-c2coc3c2c(C)cc2oc(=O)c(CC(=O)O)c(C)c23)cc1,-5%,11%
O=Cc1c[nH]c2cc(OCc3ccccc3)ccc12,18%,-92%
CC(C)n1nc(C(=O)Nc2nc(-c3ccc4c(c3)OCCO4)cs2)c2ccccc2c1=O,4%,94%[activator]
O=C(/C(=C/c1ccc(F)cc1)c1nc2ccccc2o1)c1ccccc1,?,99%[activator]
O=C(OCc1noc(-c2ccco2)n1)c1cc(Br)c[nH]1,-13%,31%[activator]
Cn1c(=O)n(CCC(=O)NCc2nnc3n2CCCCC3)c2ccccc21,47%,42%[activator]
O=C(CCc1nc(-c2ccncc2)no1)Nc1ccc(N2CCOCC2)cc1,-15%,6%
CC(=O)NC1=NN(C(C)=O)C2(S1)C(=O)N(C)c1c(C)cccc12 (stereo not given),-6%,-10%
O=C(NC1CCCC1)C1CCCN(C(=O)Cc2c[nH]c3ccccc23)C1 (stereo not given),46%[activator],7%
Cc1cc(Cl)c(CO)c(Cl)n1,-11%[1.06 µM],8%

# 18 entries from above, set out differently:
SMILES	StopGo RLuc	StopGo FLuc
CCC(=O)N1CCc2cc(S(=O)(=O)N(C)c3cccc(C)c3)ccc21	6%	-18%
O=C(CCCn1c(=O)[nH]c2ccc(Br)cc2c1=O)N1CCN(c2cccc(Cl)c2)CC1	-7%	-1%
CC(=O)Oc1ccc2c(=O)c(Oc3cc(C)cc(C)c3)c(C(F)(F)F)oc2c1	?	-24%
CN(C)c1ccc(C(=O)N2CCN(C/C=C/c3ccccc3)CC2)cc1	?	-24%
CC1CCN(S(=O)(=O)c2ccc3c(c2)CCN3C(=O)Nc2ccc(Br)cc2)CC1	9%	64%[activator]
Cc1cnc(C(=O)NCC(O)c2ccccc2C(F)(F)F)cn1 (stereo not given)	-4%	24%
CN(C(=O)CSc1nc2ccsc2c(=O)n1CCc1cccs1)c1ccccc1	0%	0%
C=CCNC(=S)Nc1cc(Cl)ccc1C	11%	1%
NC(=O)NC(=O)COC(=O)c1cc(Cl)ccc1Cl	-5%	-4%
O=C(NCC1(N2CCCCC2)CCCCC1)c1cccc(NC(=O)c2cccs2)c1	59%[activator]	21%
O=C(NCc1ccc(S(=O)(=O)N2CCOCC2)cc1)c1ccc(OC(F)(F)F)cc1	-8%	18%
COC(=O)CNC(=O)c1cc(-c2ccccn2)nc2ccccc12	-2%	3%
CCOc1ccccc1NS(=O)(=O)c1cc(C(C)C)ccc1C	127%[activator]	-3%
CCOC(=O)c1cccc(NS(=O)(=O)c2ccc(-c3cnc(C4CC4)o3)cc2)c1	192%[activator]	-16%
O=C(CCc1ccccc1)N(Cc1cccnc1)c1nc2ccc(F)cc2s1	30%[activator]	-14%
CCc1nc(SCC(=O)Nc2ccc(NC(C)=O)cc2)n[nH]1	-14%	-13%
CCNC(=O)CN1c2ccc(Br)cc2-c2ccccc2S1(=O)=O	41%[activator]	65%[activator]
Cc1ccc(CNC(=O)C2CCN(S(=O)(=O)c3cccc4nonc34)CC2)cc1	-3%	-18%

# (listing goes on)
SMILES,StopGo RLuc,StopGo FLuc
CCC(=O)N1CCc2cc(OC)c(OC)cc2C1COc1ccc2c(C)cc(=O)oc2c1 (stereo not given),-6%,-5%
COc1ccccc1C(=O)Nc1c(C(=O)N(C)c2ccccc2)sc2nc(C)cc(C)c12,222%[activator],-16%
Cc1ccccc1C(C)N (stereo not given),9%,-6%
N#Cc1c(NCCCO)nc(-c2ccco2)c2c1CCCC2,-1%,-3%
Cc1ccc(-c2nc(CS(=O)CC(=O)NCc3ccccc3Cl)c(C)o2)cc1 (stereo not given),48%&36%[activator],5%&-4%
COc1ccc(C(=O)NNc2ncnc3c2cnn3-c2ccccc2)cc1,-11%,-5%
CCOC(=O)c1ccc(NC(=O)c2cn(-c3ccccc3)nc2-c2ccc(C)cc2)cc1,-5%,-14%
Cc1ccc(-c2nc(CCNC(=O)Nc3cccc(F)c3)co2)cc1,?,0%
COc1ccccc1NC(=O)CCC(=O)N1CC(C)Oc2ccc(C)cc21 (stereo not given),-11%,-16%
CCCCNc1nc(-c2ccc(Cl)cc2)nc2ccccc12,-12%,-9%
COc1ccc(-c2nc(CSc3nncn4c3cc3oc(C)cc34)c(C)o2)cc1,-9%,-4%
Cc1cc2c(cc1S(=O)(=O)NCc1ccc(F)cc1)OCC(=O)N2,127%[activator],1%
COc1ccc(-c2nc(CSCC(=O)NC(C)c3ccccc3)c(C)o2)cc1OC (stereo not given),14%,-4%
O=C(N/N=C/c1ccccc1C(F)(F)F)C1CC1,12%,28%
Cc1cccc(C(=O)Nc2nnc(S(=O)(=O)N(C)c3ccccc3C)s2)c1,21%,18%
CC(NC(=O)/C=C/c1cccnc1)c1ccc(C(F)(F)F)cc1 (stereo not given),4%,-8%
Cc1ccccc1-c1nnc(SCC(=O)N2CCCCC2)o1,27%,131%[activator]
Cc1ccc(OCCCC(=O)Nc2sc3c(c2C(N)=O)CCCC3)cc1,-1%,-5%
O=C(O)c1ccc(CNCc2cccc(Br)c2)cc1,-4%,-7%
COc1ccc(CCn2cnc3c2c(=O)n(C)c(=O)n3C)cc1,-19%,-10%
O=C(CCCn1c(=O)c2cccn2c2ccccc21)Nc1cc(C(F)(F)F)ccc1Cl,-8%,?
COc1cc(/C=C/C(=O)c2ccc(C(=O)O)s2)cc(OC)c1O,-16%,20%
O=c1c2ccsc2ncn1Cc1coc(-c2cccc(F)c2)n1,-1%,24%
Cc1ccccc1-c1noc(CSc2nnc(-c3ccncc3)n2-c2ccc(F)cc2)n1,2%,-14%
CCc1ccc(NC(=O)c2cc(=O)c3cc(CC)ccc3o2)cc1,-10%,-5%
CC(C)n1nnnc1SCC(=O)N1N=C(c2cc3ccccc3o2)CC1c1ccco1 (stereo not given),6%,147%[activator]
CC(C)c1ccc(NC(=O)Cn2nc3ccc(S(=O)(=O)C(C)(C)C)nn3c2=O)cc1,-11%,-4%
CCCCNC(=S)N(C)/N=C/c1ccc(N(CC)CC)cc1,?,?
CCCOc1ccc(C(=O)NCC2CCCO2)cc1Br (stereo not given),0%,118%[activator]
COc1ccc(Nc2nc(CSc3nnc4n3CCCCC4)cs2)cc1,-1%,63%[activator]
CCCc1ccc(C2(C)NC(=O)N(Cc3ncc(-c4ccccc4)o3)C2=O)cc1 (stereo not given),?,?
Cc1cc(C)cc(NC(=O)N2CCC(CN3CCOCC3)CC2)c1,-4%,-3%
Nc1c(C(=O)Nc2ccc(C(F)(F)F)cc2)sc2nc(-c3cccs3)ccc12,-4%,70%[activator]
O=C(Nc1ccc(S(=O)(=O)N2CCC(c3nc4ccccc4s3)CC2)cc1)c1ccc(F)cc1,9%,-23%
COCCN(CCCO)Cc1ccco1,9%,0%
CC(C)(C)C1CCc2c(sc3nnn(CCOc4ccccc4)c(=O)c23)C1 (stereo not given),12%,6%
Cc1ccc(NC(=O)c2cccc(NC(=O)N3CCSc4ncccc43)c2)cc1Cl,11%,30%
COc1ccc(OCC(=O)Nc2cc(-c3nc4ccccc4o3)ccc2Cl)cc1,3%,93%[activator]
CCc1nn(CCCC(=O)NCc2cc(Br)ccc2OC)c(=O)c2cc3occc3n12,0%,0%
CC/C(=N\NC(N)=O)C1CC(C(C)C)CC=C1C (stereo not given),44%[activator],0%
CCCNc1nc(-c2cc(C)n(NC(=O)c3nn(C)c(=O)c4ccccc34)c2C)cs1,-19%,-14%
CCCS(=O)(=O)N1CCN(Cc2cc(=O)n3nc(-c4ccc(OC)cc4)sc3n2)CC1,-19%,4%
Cc1ccc(-c2nn3c(CCCC(=O)O)nc4ccccc4c3nc2=O)cc1C,0%,74%[activator]
C/C=C/C=C/C(=O)NC(C)c1ccc(SC)cc1 (stereo not given),0%,41%
Cc1cccc(Cn2c(=O)n3nc(-c4ccccc4)nc3c3ccccc32)c1,-7%,-12%
C#CCN1CCN(c2cccc(C)c2)CC1,4%,18%
COc1cc(OC)c(NC2CCOC2=O)cc1Cl (stereo not given),8%,8%
Cc1ccc(NC(=O)Cn2c(=O)n(-c3ccc(C)cc3)c(=O)c3c2cnn3C)cc1,-6%,-8%
CC(=O)N1N=C(c2ccccc2Cl)CC1c1ccc2nccnc2c1 (stereo not given),-6%,-3%
CC1CCN(C(=O)CN2CCN(c3nc(C(C)C)c4c(c3C#N)CCC4)CC2)CC1,?,?
O=C(Cn1c(=O)n(-c2ccccc2)c(=O)c2c3c(sc21)CCCC3)Nc1ccccc1,-18%,-19%
CCCn1c(C)nnc1SCC(=O)Nc1sc2c(c1C#N)CCC(C)C2 (stereo not given),2%,25%
COc1ccc(NC(=O)CSC2=Nc3ccccc3C3=NC(CC(=O)NCc4ccco4)C(=O)N23)cc1 (stereo not given),?,-28%
CC(C)(C)N(Cc1cn(CC2CCCCC2)nn1)S(=O)(=O)c1ccc(F)cc1Br,?,?
O=C(CCS(=O)(=O)c1nc(-c2cccs2)cc(C(F)(F)F)n1)Nc1ccc(Br)cc1,-1%,-10%
COc1cc(C2C3=C(CC(C)(C)CC3=O)OC3=C2C(=O)CC(C)(C)C3)ccc1OCC(=O)OC(C)C,-5%,6%
N#Cc1ccc(-c2ccc(OCc3ccc(C(N)=O)cc3)cc2)cc1,0%,24%
CC1CCCCN1CCCNC(=O)Cn1ncc2c3ccccc3n(Cc3ccccc3F)c2c1=O (stereo not given),-8%,3%
CC(NC(=O)NOCc1ccccc1)c1ccc(NC(=O)C2CC2)cc1 (stereo not given),25%,12%
CC(NC(=O)CCn1c(=O)c2cccn2c2ccc(F)cc21)c1ccccc1 (stereo not given),8%,-14%

# Single records (already shown):
# Shown for `Cc1ccc(CNC(=O)C2CCN(S(=O)(=O)c3cccc4nonc34)CC2)cc1` → StopGo RLuc = -3%; StopGo FLuc = -18%
# Shown for `Cc1ccc(OCCCC(=O)Nc2sc3c(c2C(N)=O)CCCC3)cc1` → StopGo RLuc = -1%; StopGo FLuc = -5%

# (cont.)
SMILES,StopGo RLuc,StopGo FLuc
NC(=O)C1(N2CCCCC2)CCN(C(=O)Nc2ccc(Cl)c(Cl)c2)CC1,-5%,21%
Cc1cc(C)cc(-c2nc3cc(NC(=O)c4ccc5c(c4)OCO5)ccc3o2)c1,2%,3%
CC(=O)c1cccc(OCc2coc(-c3ccc(Cl)cc3)n2)c1,?,-8%
CC(C)OCCCN1C(=O)c2[nH]nc(-c3ccccc3O)c2C1c1ccccc1F (stereo not given),3%,-17%
Cc1c(Cl)ccc2c(C(=O)O)cc(-c3ccccn3)nc12,8%,12%
O=C(N/N=C/CCc1ccccc1)c1cccs1,2%,164%[activator]
COc1cccc(C(=O)Nc2cc(-c3ccccc3)nn2-c2ccccc2)c1,25%,-7%
Cc1nc(N2CCOCC2)c2c(C(=O)Nc3cccc(C(F)(F)F)c3)c(C)oc2n1,-6%,-18%
COC(=O)[C@H](CC(C)C)N(CCCc1cn(CC2CCCCC2)nn1)S(=O)(=O)c1ccccc1Br,64%[activator],?
COc1ccc2nc(NS(=O)(=O)c3ccc(Cl)cc3)c(Nc3cc(C)ccc3OC)nc2c1,-10%,-10%
Cc1cccc(Cn2c(SCCN3CCCCC3)nc3c2c(=O)[nH]c(=O)n3C)c1,-13%,-10%
Cc1ccc(C(CNC(=O)COc2cc(C)cc(C)c2)N2CCCCC2)cc1 (stereo not given),-12%,-19%
Fc1ccc(COc2cccc(CNC3CC3)c2)cc1,-12%,0%
CCn1nc(C(=O)Nc2ccc(OC)c(OC(F)F)c2)c2ccccc2c1=O,30%,48%[activator]
NC(N)=NC(N)=Nc1ccc(F)cc1,7%,-1%
Cc1oc(-c2nc(C#N)c(NCCN(C)C)o2)cc1S(=O)(=O)N1CCCCC1,1%,-5%

# Random draw from the library (roughly 0.53% active in at least one column).
